KCNQ2 pot: KCNQ2 (rat) channel potentiation; O88943; CHO-K1 KCNQ2, FluxOR thallium flux fluorescence; stronger effect = higher value; B-score at 10 µM; 310,000 compounds, 0.54% hits;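 active = fluorescence ratio B-score at least 3 SD of library B-scores, with initial fluorescence B-score within 3 SD, cut at about 5.3 in these data; same plate scores as AID 2156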;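 also: B-score of peak minus minimum over baseline fluorescence ratio after K+ and Tl+ stimulus; positive B-score means potentiation of KCNQ2 with more thallium influx and brighter signal; only the inactives scoring about 0 or higher are listed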
Target sequence (O88943 whole entry, looked up): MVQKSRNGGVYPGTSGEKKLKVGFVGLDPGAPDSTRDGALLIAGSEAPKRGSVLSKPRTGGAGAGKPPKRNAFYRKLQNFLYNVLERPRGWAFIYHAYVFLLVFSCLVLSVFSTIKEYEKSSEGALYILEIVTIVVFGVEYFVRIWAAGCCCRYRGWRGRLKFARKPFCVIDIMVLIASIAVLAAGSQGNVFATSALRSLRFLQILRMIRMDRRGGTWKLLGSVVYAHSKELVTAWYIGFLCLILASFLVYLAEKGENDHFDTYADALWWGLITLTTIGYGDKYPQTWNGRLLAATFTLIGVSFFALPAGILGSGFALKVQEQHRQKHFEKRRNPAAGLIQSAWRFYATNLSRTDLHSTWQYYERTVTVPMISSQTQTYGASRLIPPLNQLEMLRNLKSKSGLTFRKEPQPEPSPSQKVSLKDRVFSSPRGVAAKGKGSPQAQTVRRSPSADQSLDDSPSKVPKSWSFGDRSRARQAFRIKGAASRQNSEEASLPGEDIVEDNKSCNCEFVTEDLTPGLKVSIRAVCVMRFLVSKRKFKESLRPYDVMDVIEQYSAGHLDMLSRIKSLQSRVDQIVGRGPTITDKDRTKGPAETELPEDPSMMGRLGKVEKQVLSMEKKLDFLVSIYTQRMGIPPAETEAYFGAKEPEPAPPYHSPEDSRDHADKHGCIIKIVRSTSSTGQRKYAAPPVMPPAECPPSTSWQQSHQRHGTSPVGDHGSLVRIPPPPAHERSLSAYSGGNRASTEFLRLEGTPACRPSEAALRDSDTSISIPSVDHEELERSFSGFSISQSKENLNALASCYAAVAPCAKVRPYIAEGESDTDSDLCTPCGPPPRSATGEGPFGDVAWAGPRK
KCNQ2 pot baseline: second read-out of KCNQ2 pot, no call of its own (marks repeat the call); B-score; compound at 10 µM; measured here: initial fluorescence intensity artifact check;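 brightness before thallium and not channel activity; 0 = typical well and far values either way flag optical interference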
* marks the source's active call; other numbers are inactive results. The list is partial; the hit share may differ from the screen's.

SMILES	KCNQ2 pot	KCNQ2 pot baseline
CCOC(=O)c1c(C)n(C)c2ccc(OC(=O)c3ccoc3)cc12	1.4	-0.14
CC(=O)Nc1nc(SCC(=O)NCc2ccc(F)cc2)[nH]c(=O)c1NC(=O)c1cccs1	1.4	-0.92
O=C(O)Cc1csc(-c2cccc(F)c2)n1	0.21	-0.19
COc1ccc(S(=O)(=O)N(C)CC(=O)N2CCC(C(N)=O)CC2)cc1	0.64	0.73
CC1Cc2ccccc2C(=O)N1 (stereo unspecified)	0.1	-0.92
COc1ccccc1OCC(=O)OCn1c(SC)nnc(C)c1=O	0.09	-0.06
CCCCn1c(=O)[nH]c(=O)c2c1nc(-c1ccc(OC(F)F)c(OC)c1)n2C	0.96	-0.67
CCOC(=O)NC(=O)C(=CNc1ccccc1OC)C(=O)NC(=O)OCC	1.4	-2.4
CCOC(=O)N1CCN(S(=O)(=O)N2CCCC(C(=O)NCc3ccc(OC)cc3)C2)CC1 (stereo unspecified)	0.94	-0.42
CNC(=S)N(Cc1ccc(Cl)cc1)Cc1cccs1	1.1	-0.18
COc1ccc(N2C(=O)C3CCCN3C2c2ccc(F)cc2)cc1Cl (stereo unspecified)	0.03	0.24
CCSc1nc2ccccc2n1C(=O)c1ccc(S(=O)(=O)N2CCCCC2)cc1	0.33	-0.49
COc1cc(C(N)=O)cc(Br)c1OC	0.99	-2.1
CCOC(=O)C1CSC(CC(=O)Nc2ccc(Cl)cc2)C(=O)N1 (stereo unspecified)	0.71	-1.9
Cc1ccc(S(=O)(=O)NCCCNC(=O)c2ccccc2)cc1	0.73	-1.6
COc1ccc(NC(=O)CCSCCc2ccccn2)cc1OC	1.2	-0.13
Cc1ccc(C2C(C#N)=C(N)Oc3nc(-c4ccccc4)[nH]c32)o1 (stereo unspecified)	0.05	-0.05
Cc1cccc(C)c1NC(=O)COC(=O)c1ccc2[nH]c3c(c2c1)CCCC3	0.58	0.33
O=C(O)CC(NNC(=O)c1ccccc1)C(=O)Nc1cccc([N+](=O)[O-])c1 (stereo unspecified)	0.96	0.97
CCOC(=O)N1CCN(C(=O)CS(=O)(=O)c2cn(Cc3ccccc3C)c3ccccc23)CC1	0.56	-0.63
COC(=O)c1ccc(NC(=O)c2cccc(N3C(=O)C4C5C=CC(C6CC56)C4C3=O)c2)cc1 (stereo unspecified)	2	0.49
COc1ccc(S(=O)(=O)/N=C2/NC(=O)/C(=C\c3cc(OC)c(OC)cc3[N+](=O)[O-])S2)cc1	0.38	0.87
O=C(O)c1ccccc1-c1nc2ccccc2n1-c1ccccc1	0.78	0.45
CC12CC3CC(C)(C1)CC(C(=O)Nc1nncs1)(C3)C2	0.79	-0.08
O=C1OCC=C1NNC(=O)c1cccnc1	0.6	-0.82
Cc1ccc(NC(=O)C2CCC(CNc3c(N4CCC(C)CC4)c(=O)c3=O)CC2)cc1F (stereo unspecified)	1.4	0.06
CCc1nc(SCC(=O)c2ccccc2)c2c(=O)n(C)c(=O)n(C)c2n1	5.4*	-0.61*
CCOC(=O)Cc1nnc(NC(=O)CC)s1	0.2	-0.38
C=CCNc1nc(-c2c(C)nc3sccn23)cs1	1.4	-1.7
O=C(c1cccc2ccccc12)C1CCCN(C(=O)CCN2CCCO2)C1 (stereo unspecified)	1.2	0.5
CCCn1cc(SCC(=O)Nc2nnc(C)s2)c2ccccc21	0.75	-1.2
Cn1c(CO)cnc1S(=O)(=O)Cc1ccc(Cl)cc1	1	-0.22
O=C(CSc1ccc(Cl)cc1)Nc1ccc(C2SCCS2)cc1	0.15	0.93
COCCNC(=O)c1onc(CS(=O)(=O)c2cc(C)cc(C)c2)c1C(=O)NCCOC	0.03	-0.71
O=C(O)c1cc(NCc2c(F)cccc2Cl)ccc1N1CCOCC1	0.83	0.9
CC(C)c1ccc(N)c(S(=O)(=O)O)c1	1	0.24

2 entries from above in a different format:
SMILES | KCNQ2 pot | KCNQ2 pot baseline
CCc1nc(SCC(=O)c2ccccc2)c2c(=O)n(C)c(=O)n(C)c2n1 | 5.4* | -0.61*
COc1ccc(N2C(=O)C3CCCN3C2c2ccc(F)cc2)cc1Cl (stereo unspecified) | 0.03 | 0.24

For convenience, part of the list above:
SMILES	KCNQ2 pot	KCNQ2 pot baseline
CCOC(=O)N1CCN(C(=O)CS(=O)(=O)c2cn(Cc3ccccc3C)c3ccccc23)CC1	0.56	-0.63
COC(=O)c1ccc(NC(=O)c2cccc(N3C(=O)C4C5C=CC(C6CC56)C4C3=O)c2)cc1 (stereo unspecified)	2	0.49
COc1ccc(S(=O)(=O)/N=C2/NC(=O)/C(=C\c3cc(OC)c(OC)cc3[N+](=O)[O-])S2)cc1	0.38	0.87
O=C(O)c1ccccc1-c1nc2ccccc2n1-c1ccccc1	0.78	0.45
CC12CC3CC(C)(C1)CC(C(=O)Nc1nncs1)(C3)C2	0.79	-0.08
O=C1OCC=C1NNC(=O)c1cccnc1	0.6	-0.82
Cc1ccc(NC(=O)C2CCC(CNc3c(N4CCC(C)CC4)c(=O)c3=O)CC2)cc1F (stereo unspecified)	1.4	0.06
CCc1nc(SCC(=O)c2ccccc2)c2c(=O)n(C)c(=O)n(C)c2n1	5.4*	-0.61*
CCOC(=O)Cc1nnc(NC(=O)CC)s1	0.2	-0.38
C=CCNc1nc(-c2c(C)nc3sccn23)cs1	1.4	-1.7
O=C(c1cccc2ccccc12)C1CCCN(C(=O)CCN2CCCO2)C1 (stereo unspecified)	1.2	0.5
CCCn1cc(SCC(=O)Nc2nnc(C)s2)c2ccccc21	0.75	-1.2
Cn1c(CO)cnc1S(=O)(=O)Cc1ccc(Cl)cc1	1	-0.22
O=C(CSc1ccc(Cl)cc1)Nc1ccc(C2SCCS2)cc1	0.15	0.93

Further compounds
SMILES	KCNQ2 pot	KCNQ2 pot baseline
COc1ccc(C(=O)NCCSc2ccccn2)cc1	0.81	-3.4
CCCCNC(=O)CCC(=O)Nc1ccc2nc(N3CCOCC3)cc(C)c2c1	0.24	-0.44
O=C(NC1CCCCC1)c1cc(-c2ccco2)on1	0.11	-0.44
Cc1nc2sc(C(c3ccco3)N3CCC(C)CC3)c(O)n2n1 (stereo unspecified)	0.09	-1.3
COCCCN1C(=O)N(c2ccc(F)cc2)C(=O)C1CC(=O)Nc1ccc(OC)cc1 (stereo unspecified)	0.41	-0.17
CC(C)NC(=O)COC(=O)c1cc(=O)[nH]c2ccccc12	0.02	-2
N/C(CCCN1CCCCC1)=N/O	1.2	-0.02
Cn1c(=O)n(Cc2ccccc2Cl)c2ccccc21	0.79	-0.99
CCOC(=O)CC1=C(C(=O)OCC)C(c2cc(OC)c(OC)cc2OC)C(C#N)=C(N)O1 (stereo unspecified)	0.47	-0.69
COC(=O)CNC(=O)CNC(=O)Nc1ccccc1Cl	0.27	0.18
Cc1nc2ccc(C(=O)N/N=C/c3ccc(O)cc3)cc2[nH]1	0.76	-0.2
CNS(=O)(=O)c1cccc(C(=O)OCC(=O)N2CCc3ccccc3C2)c1	0.97	0.19
Nc1c(C(=O)N/N=C/c2ccc(OCc3ccccc3)cc2)cnn1-c1ccccc1	0.6	-1
CCn1ncc(/C=C2/SC(=S)NC2=O)c1C	0.13	-1.5
Cc1ccc(OC(=O)c2sc3ncn(C)c(=O)c3c2C)cc1	3.7	1.5
Cc1ccc(CNC(=O)c2ccc(Cl)c(S(N)(=O)=O)c2)n1C	1.2	1.5
CCOC(=O)NC(=O)CSc1ccccn1	0.71	-3.7
CCCCN(C(=O)c1ccc(S(=O)(=O)N(C)C)cc1)c1nc2ccccc2s1	0.98	0.09
O=C(NNc1ccccc1[N+](=O)[O-])Nc1ccccc1	0.42	-1.3
O=C(/C=C/c1ccco1)OCc1nnc(-c2ccc(Cl)cc2)o1	0.01	0.01
Cc1cc(NC(=O)CSc2nc3c(c(=O)n2C)SCC3)no1	0.2	-0.04
O=C(CSc1nnc(C2COc3ccccc3O2)o1)Nc1nccs1 (stereo unspecified)	0.55	0.86
COc1ccc(C)cc1NC(=O)CSc1nnc(-c2ccccn2)n1Cc1ccco1	0.83	-1.2
COCCN(C(=O)c1cc(OC)c(OC)c(OC)c1)c1c(N)n(Cc2ccccc2)c(=O)[nH]c1=O	1.1	-0.05
Nc1ncnc2c1ncn2C1OC(CO)C(O)C1N (stereo unspecified)	0.18	1.7
Cc1ccc2nsnc2c1S(=O)(=O)N1CCN(C(=O)C2CCCO2)CC1 (stereo unspecified)	0.84	-0.09
COc1cccc(NC(=O)c2ocnc2C)c1	2.2	-0.01
O=C1CCc2cc(NS(=O)(=O)c3ccc([N+](=O)[O-])cc3)cc3c2N1CCC3	0.29	-1.6
CC1(C(=O)N(CC(=O)NC2CCCC2)Cc2ccccc2)CC(=O)N=C2C=CC=CN21 (stereo unspecified)	1.1	0.48
COc1ccc(OC)c2[nH]c(=O)c(CCNC(=O)C(C)C)cc12	0.44	-1.6
O=C(N=Nc1c(O)n(Cc2ccccc2)c2ccccc12)c1ccc(O)cc1	0.05	0.1
CC(C)(C)C1(C)OC(C(N)=O)C(C(N)=O)O1 (stereo unspecified)	1.4	-1.6
CCN(CC)C(=O)C[n+]1cccc(C(N)=O)c1	0.64	0.04
Cc1ccccc1OCC(=O)NCCCNC(=O)c1cccnc1	0.33	-1.9
CN(C)c1nc(N)nc(-c2cccnc2)n1	0.66	0.83
COc1ccc(CCNS(=O)(=O)c2cc(/C=C/C(=O)O)ccc2C)cc1OC	1.6	-0.81
COc1ccccc1NC(=S)N(C(C)C)C(C)c1ccccn1 (stereo unspecified)	0.46	0.06
CCCOc1ccc(S(=O)(=O)n2cc(F)c(=O)[nH]c2=O)cc1	1.1	-2.3
CC(=O)NC(Cc1ccccc1F)C(=O)NC1CCN(C(=O)NCc2ccccc2)CC1 (stereo unspecified)	0.91	0.33
CC(=O)c1cccc(Nc2ncnc3ccc(Br)cc23)c1	2	0.05
COc1ccc(OC)c(S(=O)(=O)Nc2cc3c4c(c2)CCN4C(=O)CC3)c1	0.31	-0.96
Cc1cc(OCC(=O)NCCCN2CCOCC2)c2c(C)c(C)c(=O)oc2c1	0.41	1.1
CC1Cn2c(nnc2-c2ccc(F)cc2)S1 (stereo unspecified)	1.8	-1.1
Cc1occc1-c1nnc(SCC(=O)N2CCN(c3ccccc3)CC2)n1C	0.01	-0.28
COc1ccc(C(=O)CC(=O)C(=O)Nc2c(C)cccc2C)cc1	2.1	-0.69
Cc1cccc(NC(=O)CN(C)S(=O)(=O)c2ccc(Br)cc2)n1	1.1	-3.4
CCc1ccc(/C=C(\C)C(=O)c2c(C)cc(C)[nH]c2=O)cc1	0.09	-3
CN1CCC(C(=O)N2CCCC(C(=O)c3ccc4c5c(cccc35)CC4)C2)CC1 (stereo unspecified)	0.01	0.66
O=C(c1ccco1)N1CCN(C(=O)C2CC(=O)N(c3ccc(Cl)cc3)C2)CC1 (stereo unspecified)	0.24	0.45
CC(NC(=O)c1ccc(Cn2cc([N+](=O)[O-])cn2)o1)c1ccccc1 (stereo unspecified)	0.01	0.04
CCc1cc2ccc(C)cc2nc1SCC(=O)NC1CCCC1	0.43	-0.04
COC(=O)c1nn(-c2ccc(C)cc2)ccc1=O	0.13	-1.5
O=C(Nc1cc(S(=O)(=O)N2CCOCC2)ccc1Oc1ccc(F)cc1)C1=COCCO1	1.3	-0.2
CCOc1ccc(S(=O)(=O)N2CCCC(C(=O)NCC3CCCO3)C2)cc1Cl (stereo unspecified)	1.7	-0.15
Cc1nn2c(-c3cccnc3)ccnc2c1-c1ccccc1	0.45	1.5
CCOC(=O)CSc1nc2ccc(NC(=O)CSc3nnnn3Cc3ccccc3)cc2s1	1.1	-0.99
Cc1ccc(C(O)c2nccn2C)o1 (stereo unspecified)	0.72	0
O=C1NC(=O)/C(=C\c2ccc(OCc3ccccc3)cc2)S1	8*	-0.27*
CC1(C)CC(=O)C2=C(C1)OC(N)=C(C#N)C2c1ccccc1OC(=O)N1CCOCC1 (stereo unspecified)	0.02	-1.6
COc1cc(OC)cc(N(C(=O)c2snc(C(N)=O)c2N)C(C(=O)NCC2CCCO2)c2ccc(C)o2)c1 (stereo unspecified)	0.49	1.3

(continued)
SMILES	KCNQ2 pot	KCNQ2 pot baseline
Cc1ccc(C(=O)N2CCCC(CCC(=O)N3CCN(c4ccccn4)CC3)C2)cn1 (stereo unspecified)	0.83	1.2
CCn1c(SCC(=O)NNC(=O)c2ccc(OC)cc2)nnc1-c1cccnc1	0.57	-0.1
CS(=O)(=O)c1ccc2nc(NC(=O)c3cccc(NS(=O)(=O)c4ccc(F)c(F)c4)c3)sc2c1	2	-0.65
CCCCOc1cccc(C(=O)NC(=S)Nc2cccnc2)c1	3.7	1.4
CCOC(=O)c1sc(=NC(=O)CCS(=O)(=O)c2ccccc2)n(C)c1C	0.71	0.07
Cc1ccc(/C=C2\SC(=S)N(CCC(=O)NNC(=O)c3ccncc3)C2=O)cc1	1.5	-0.71
O=C(Nc1ccc(N2CCN(C(=O)c3ccco3)CC2)c(Cl)c1)c1cccnc1	0.02	-0.5
CCOc1ccc(C(C)NC(=O)c2ccccc2OCc2c(C)noc2C)cc1OCC (stereo unspecified)	1.2	-1.5
CCN(Cc1ccccc1)C(=O)Cn1cnc2c1c(=O)n(C)c(=O)n2C	0.19	-0.05
O=C(O)c1nc2ccccc2nc1C(=O)O	1.2	-3.4
CC(C)c1ccc(NC(=O)CSc2nnc(CN3CCOCC3)n2C)cc1	0.85	0.94
Cc1nc2c(=O)[nH]c(=S)n(C)c2nc1C	1.8	-0.05
O=C(NCCCN1CCOCC1)c1ccc(S(=O)(=O)Nc2cccc(C(F)(F)F)c2)cc1	0.73	-1
Cn1c(NCCN2CCOCC2)nc2c1c(=O)n(Cc1cccc(Cl)c1)c(=O)n2C	0.05	0.83
Cc1nn(C(=O)Cn2ccc([N+](=O)[O-])n2)c(C)c1Cl	0.43	-1.3
CC(C)(C)OC(=O)N1CCCN(C(=O)Nc2ccc(C(F)(F)F)cc2)CC1	0.31	0.01
Cn1c(=N)n(CC(=O)c2ccc(Cl)c(Cl)c2)c2ccccc21	2.3	-0.01
NS(=O)(=O)c1ccc(-c2cccc(/C=C3\SC(=O)NC3=O)c2)cc1	0.29	0.59
COc1ccc(/C=C/C(=O)NCCCNC(=O)/C=C/c2ccc(OC)c(OC)c2)cc1OC	0.84	-1.5

Assay outcomes deposited in PubChem BioAssay by Johns Hopkins Ion Channel Center.
